# Screening results from PubChem.
# Anthrax LT inh: qHTS Assay for Anthrax Lethal Toxin Internalization. Potency, µM (top dose mostly 40 µM), for inactives: top-dose activity change, negative = inhibition, most hits filed as inhibitors. Cells, anthrax lethal toxin internalization, FRET ratio (460/530). AID 912, 2007. 70,000 compounds, 0.67% hits; active = well fitted falling ratio curve with the 530 nm signal flat; inconclusive = other ratio curves, or a change in one channel alone; inactive = flat curves in the ratio and both channels; the % refers to the ratio; further: on the % scale 0 is the no-effect control and ±100 the full control effect; nearly all actives have a fitted effect of over 50% in size; tested in ME-180 cells; beta-lactamase reporter
# Prx2 Sm inh: Schistosoma Mansoni Peroxiredoxins (Prx2). 65,000 compounds, 0.07% hits. S. mansoni Prx2 activity coupled to TGR/GSH (TGR is thioredoxin glutathione reductase), NADPH fluorescence loss, qHTS; some inactives read as strong as hits. Schistosoma mansoni peroxiredoxin 2 (Prx2). Potency, µM; active means full or partial inhibition curve with a strong effect at the top dose; inconclusive means weaker partial or single-point curve; inactive means no accepted curve; further: series up to 57 µM; many of its hits are not listed in these tables
#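 Prx2 inhibition was measured as reduced NADPH consumption when electrons flowed from NADPH through TGR and glutathione to Prx2 and H2O2. Plates were read kinetically over 8 min; enzyme reagents were held at 4 deg C during dispensing.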
# Starred values were filed as active, the others as inactive; ? = inconclusive; nt = no result given; & = joins results of further samples; [ ] = dose if it differs, or a comment. Potency means the concentration at half of the fitted maximal effect. This is a subset (hit frequency here may not be typical).
# Every second line gives: Anthrax LT inh, Prx2 Sm inh
> CCN(CC)CCCNS(=O)(=O)c1ccc(OC)cc1
→ -3%, nt
> CC(=O)c1c(C(C)=O)c(C)n(Cc2ccccc2)c1C
→ -5%, >57
> CCCCOP(=O)(c1ccc(N(C)C)cc1)C(O)c1ccncc1 (centres undefined)
→ -6%, >57
> CC(=O)Nc1ccccc1OC(=O)N(C)C
→ ?, >57
> COc1ccc(CN2CCN(C(=O)CC(C)C)CC2)cc1OC
→ -2%, nt
> N#CC1=C(N)Oc2n[nH]c(-c3ccncc3)c2C1c1ccsc1 (centres undefined)
→ ?, nt
> CCS(=O)(=O)Nc1ccc(-c2ccc(NS(=O)(=O)CC)c(OC)c2)cc1OC
→ -4%, nt
> NC(=O)c1sc2nccc(Nc3ccccc3)c2c1N
→ ?, >57
> CC1=C(C#N)C(c2cccnc2)C2=C(CC(C)(C)CC2=O)N1 (centres undefined)
→ ?, >57
> COc1cc(NC(=O)c2ccc3c(c2)OCO3)c2ncccc2c1
→ 0%, >57
> CCCn1c(NCc2ccc(N(C)C)cc2)nc2ccccc21
→ -15%, >57
> CC[C@H](C)C(=O)O[C@H]1C[C@@H](C)C=C2C=C[C@H](C)[C@H](CC[C@@H]3C[C@@H](O)CC(=O)O3)[C@H]21
→ -2%, nt
> Cc1cc(C)c(OCC(=O)Nc2cccc(O)c2)cc1C
→ 2%, >57
> CC(=O)Nc1cccc(OC(=O)c2ccoc2C)c1
→ -4%, >57
> CC1=Nc2ccccc2NC(=O)C1Sc1nnc(C)s1 (centres undefined)
→ 12%, >57
> COC(=O)CC1SC(=O)NC1=Nc1ccc(C)cc1 (centres undefined)
→ -3%, >57
> CCCCn1c(CNC(=O)CCC)nc2ccccc21
→ 6%, >57
> O=C(O)CSCCC(=O)Nc1ccc(F)cc1
→ -11%, >57
> COCCCCC(=NOCCN)c1ccc(C(F)(F)F)cc1
→ ?, >57&>57&>57
> CC(C)OC(=O)CSc1nnc(-c2ccc(Cl)cc2)n1N
→ 3%, >57
> Cc1cccc(NC(=O)CSc2nnc([C@@H](N)Cc3c[nH]c4ccccc34)o2)c1C
→ ?, >57
> CCCCCn1c(=O)[nH]c2cc(C(=O)NCCN3CCOCC3)ccc2c1=O
→ -3%, >57
> COc1cccc(NC(=O)N2CCC(C(N)=O)(N3CCCCC3)CC2)c1
→ -8%, >57
> COc1ccccc1NC(=O)c1cc2ccccc2o/c1=N\O
→ -21%, >57
> CC(=O)c1ccc(N2CCN(C(=O)c3ccc(NC(=O)C4CCCO4)cc3)CC2)cc1 (centres undefined)
→ 5%, >57
> COCc1nc(-c2cc(Br)ccc2OC)no1
→ -5%, >57
> CCOc1ccccc1OCCCC(=O)Nc1ccc(OC)nc1
→ -10%, >57
> COc1cc(NC(=O)c2ccco2)c(OC)cc1NC(=O)CSc1nnc(-c2cccs2)n1C
→ 8%, >57
> Cc1cccc(N2CCN(c3nc4ccc(Cl)cc4n4cnnc34)CC2)c1C
→ ?, >57
> COc1ccc(C(c2ccc(OC)cc2)C(Cl)(Cl)Cl)cc1
→ ?, nt
> Nc1cc(=O)nc(SCC(=O)NC2CCCCC2)n1-c1ccccc1
→ -9%, >57
> COc1ccc(C2CC(C(F)(F)F)n3nc(C(=O)NCCCn4ccnc4)cc3N2)cc1OC (centres undefined)
→ 12%, >57
> Cc1ccc(S(=O)(=O)Nc2ccccc2C(N)=O)cc1
→ -3%, nt
> CCSCCCC(=O)O
→ -3%[8 µM], >57
> COc1ccc(NS(=O)(=O)c2ccc(Br)s2)cc1OC
→ 1%, >57
> CCC(C)C(NC(=O)OC(C)(C)C)C(=O)NC(CC(C)C)C(N)=O (centres undefined)
→ 3%, >57
> O=C(Nc1ccccc1)N1CCN2C(=O)c3ccccc3C12c1ccccc1 (centres undefined)
→ 11%, >57
> O=C(COC(=O)c1cncc(Br)c1)NCc1ccco1
→ -14%, >57
> CC1CCC(NC(=O)Cn2cc3c(n2)CCCC3)CC1 (centres undefined)
→ -7%, >57
> Cc1cccc(N(CC(=O)NC2CCCCC2)C(=O)c2c(C)noc2C)c1
→ 4%, >57
> O=C(c1ccccc1OCc1ccccc1Br)N1CCN(c2ncccn2)CC1
→ nt, >57
> COC(=O)C1C2C=CC3(CN(c4cccc(Cl)c4)C(=O)C13)O2 (centres undefined)
→ 4%, >57
> COc1ccc(/C=C/NC(=O)c2ccc(OC)cc2)cc1
→ ?, nt
> CC(C(N)=O)N1CC(c2ccc(Cl)cc2)CC1=O (centres undefined)
→ -2%, >57
> CC(=O)O[C@H]1CC[C@@]2(C)[C@@H](CC[C@H]3[C@H]2CC(=O)[C@]2(C)[C@@H]3C[C@@H](N3CC3)[C@H]2C(C)=O)C1
→ ?, >57
> CCOC(=O)c1cnc(SCc2ccc(C)cc2)nc1N
→ ?, >57
> O=C(c1ccc(F)cc1)N1CCN(c2ncccn2)CC1
→ -5%, >57
> COC(=O)c1ccccc1NC(=O)CN(Cc1ccccc1)S(C)(=O)=O
→ -16%, >57
> CN1CCn2c1nc(N1CCCCC1)nc2=O
→ 7%, >57
> COC(=O)[C@H](C)[C@H]1C[C@]1(C)[C@H](NC(=O)OCc1ccccc1)c1ccccc1
→ ?, >57
> O=C(c1cccs1)N(Cc1ccccn1)Cc1ccco1
→ 3%, >57
> COc1cc(-c2noc(-c3cccc(Cl)c3)n2)cc(OC)c1OC
→ 3%, >57
> CCCn1c(C)nc2c(NCC(C)(C)CN(C)C)nc(C)nc21
→ -5%, nt
> Cc1nn(-c2ccc(S(=O)(=O)O)cc2)c(O)c1N=Nc1ccc(-c2ccc(N=Nc3ccc4c(S(=O)(=O)O)cc(S(=O)(=O)O)c(N)c4c3O)c(O)c2)cc1O.[Cu].[Cu]
→ -17%[8 µM], >57
> O=C(CCS(=O)(=O)c1ccc(Br)cc1)N1CCN(c2ccccc2)CC1
→ ?, >57
> CCOC(=O)c1cc(C)sc1NC(=O)C1CCC1
→ -22%, >57
> CS(=O)(=O)Nc1ccc(Cc2noc(-c3ccc4[nH]cc(CCN)c4c3)n2)cc1
→ ?, >26
> O[C@@H](COc1ccc(Cl)cc1Cl)CN1CCCC1
→ -8%[8 µM], >57
> CC(C)(C)c1nnc2sc(SC/C(O)=C(\C#N)c3nc4ccccc4[nH]3)nn2c1=O
→ -11%, >57
> COc1cc(S(=O)(=O)Nc2ccccc2C)ccc1Cl
→ -14%, >57

# (listing goes on)
# Every second line gives: Anthrax LT inh, Prx2 Sm inh
> CS(=O)(=O)N(Cc1nnc(-c2cccs2)o1)c1ccc(Cl)cc1F
→ -5%, >57
> Nc1ccccc1N=Cc1c(O)n(CCC2=CCCCC2)c(=O)[nH]c1=O
→ -19%, >57
> Cc1ccc2cc3c(NC(=O)c4ccco4)nn(C)c3nc2c1
→ nt, >57
> COc1ccc(N(CC(=O)N2c3ccccc3CC2C)S(=O)(=O)c2c(C)noc2C)cc1 (centres undefined)
→ -28%, >57
> O=C(Nc1ccccc1C(=O)NCCN1CCOCC1)c1ccco1
→ 2%, >57
> C=CCOC(=O)C(C#N)c1nc2ccccc2nc1N1CCN(Cc2ccc3c(c2)OCO3)CC1 (centres undefined)
→ 5%, >57
> Cc1nc(NCc2ccccc2)c2nc(-c3ccccc3)n(CCN3CCCC3)c2n1
→ 3%, nt
> CCCOC(=O)CN1C(=O)c2ccc(C(=O)OCCC)cc2C1=O
→ ?, >57
> COc1ccc(Cc2nnc(SCc3nc4ccccc4c(=O)[nH]3)o2)cc1
→ 1%, >57
> CO[C@H]1COC(=O)[C@H](C)COC(=O)[C@H](C)NC(=O)C/C=C\[C@H]1C
→ -4%[8 µM], nt
> COc1ccccc1NC(=O)CSc1ccc2nnc(-c3ccncc3)n2n1
→ 9%, >57
> CCOC(=O)CNc1c(N2CCN(c3ccccn3)CC2)c(=O)c1=O
→ -5%, >57
> Cc1c(N=Cc2nc3ccccc3[nH]2)c(=O)n(-c2ccccc2)n1C
→ -5%, nt
> COc1ccc(-n2c(=O)c(-c3ccc(Cl)cc3)nc3cnc(N4CCOCC4)nc32)cc1
→ ?, >57
> CC(=O)Nc1ccc(C(=O)Nc2ccc3c(c2)OCO3)cc1
→ 2%, >57
> Cc1oc2c(c1C(=O)NC(Cc1c[nH]c3ccccc13)C(=O)O)CCCC2 (centres undefined)
→ 3%, >57
> NC(N)=NC(N)=Nc1ccc(S(N)(=O)=O)cc1
→ 7%[8 µM], >57
> NC(=O)c1cccc2c1C(=O)N(C1CCCCC1)C2
→ -7%, >57
> CCc1nnc(NC(=O)Nc2ccc(OC)cc2)s1
→ -3%, >57
> Cc1onc(-c2c(F)cccc2Cl)c1C(=O)OCN1C(=O)c2ccccc2C1=O
→ -21%, nt
> O=C(NC1c2ccccc2-c2ccccc21)N1CCOCC1
→ -8%, >57
> O=c1cnc2cnc(N3CCOCC3)nc2n1C1CC1
→ -8%, >57
> COc1cc(C(=O)Nc2ccccc2N2CCN(S(C)(=O)=O)CC2)cc(OC)c1OC
→ 9%, >57
> Cc1cccc(-c2c3c(=O)n(C)c(=O)n(C)c3cn2C(C)(C)C)c1
→ 1%, nt
> O=c1[nH]c(CN2CCc3ccccc3C2)nc2ccccc12
→ -9%, >57
> CC(Oc1ccc(Cl)cc1Cl)C(=O)NCCCN(C)C (centres undefined)
→ -11%, nt
> Cc1cccc(CNc2ccnc(-c3cccc(NS(C)(=O)=O)c3)n2)c1
→ ?, >57
> O=C(Nc1cccc(-c2nnc(-c3ccccc3)o2)c1)C1CCCCC1
→ 6%, >57
> CC[C@H](CO)NC(=O)[C@H]1C=C2c3cccc4[nH]cc(c34)C[C@@H]2N(C)C1
→ 0%[3.58 µM], >57
> COC(=O)NC(CC(C)=O)c1ccc(Cl)cc1 (centres undefined)
→ -9%[8 µM], nt
> COc1ccc(F)cc1S(=O)(=O)NC(Cc1ccccc1)C(N)=O (centres undefined)
→ -5%, >57
> COc1ccc(S(=O)(=O)NCCSCc2ccco2)cc1Cl
→ -11%, >57
> O=C(COc1ccccc1)N1CCN(C(=O)c2cccs2)CC1
→ -9%, >57
> CCOc1cc(C(=O)NC(C)c2ccncc2)cc(OCC)c1OCC (centres undefined)
→ -7%, >57
> COC(=O)c1sccc1NC(=O)c1ccc(OC)cc1
→ -5%, >57
> CCOCCCNC(=O)Cn1cc2c(n1)CCCCC2
→ 1%, >57
> CCn1c(SCC(N)=O)nc2ccccc2c1=O
→ 8%, >57
> COc1ccccc1-c1cc(NCc2ccccc2)ncn1
→ 18%, >57
> CCOP(=O)(C#CC(C)(C)C)C(O)(c1ccccc1)C(F)(F)F (centres undefined)
→ 3%, >57
> O=C(c1cc(-c2ccco2)on1)N1CCOCC1
→ -14%, >57
> Oc1ccc(-c2[nH]ncc2-c2cccc3cccnc23)c(O)c1
→ -16%, >57
> COc1ccc2nc(N3CCC(C)CC3)c(C#N)cc2c1
→ ?, >57
> O=C(Nc1ccc2c(c1)OCO2)c1ccc(COc2ccc3c(c2)CCC3)o1
→ 6.3µM*, >57
> CC(C)Cn1c2c(c(O)c(C(=O)Nc3ncccc3O)c1=O)CCCC2
→ 0%, >57
> CCOc1ccc(N2CC(=O)N/C2=N\c2nc(C)cc(C)n2)cc1
→ ?, >57
> COc1ccc(-c2ccc(-c3noc(-c4cccc(OC)c4)n3)c(OC)n2)cc1
→ 4%, >57
> CCOC(=O)c1c(C)c(C)n2c1NC(=O)C2
→ -6%[8 µM], >57
> CCCCC(=O)Nc1ccc(NC(=O)c2ccc3c(c2)OCO3)cc1OC
→ 8%, >57
> CCOc1ccc(Cn2nnc(C(=O)NCc3ccccc3)c2N)cc1
→ -6%, >57
> NC(=O)NC(=O)CSc1cccc(C(F)(F)F)c1
→ -7%, >57
> Cc1cc(C)n(-c2ccc(C(=O)OCc3nnc(-c4ccccc4)o3)cc2)n1
→ -22%, >57
> C=C(C)CSC1=C(C#N)C(c2ccccc2Cl)CC(=O)N1 (centres undefined)
→ -3%, >57
> COC(=O)c1cc2ccc(OC)c(OC)c2c(=O)s1
→ -2%, >57
> Cc1nnc(-n2cnc3ccccc32)c2ccccc12
→ -3%, >57
> COc1cccc(N(C(C)=O)c2nc(C)cc(C)c2C#N)c1
→ -21%, >57
> O=C(OCc1csc(-c2ccccc2)n1)c1cccs1
→ -15%, >57
> c1csc(-n2nc3ccccc3n2)c1
→ -1%, >57
> CSc1nc(SCC(=O)NCc2ccco2)c2c3c(sc2n1)COC(C)(C)C3
→ 6%, >57
> CON(C)C(=O)c1nnc2c(n1)[nH]c1ccccc12
→ 1%[1.6 µM], nt
> Cn1c(=O)oc2cc(S(=O)(=O)NCCC(=O)NCCc3ccccc3)ccc21
→ -10%, >57

# Other results:
# Every second line gives: Anthrax LT inh, Prx2 Sm inh
> COC(=O)CN1C(=O)C(C)(C)Oc2ccc(C(=O)NC3CC3)cc21
→ -1%, >57
> C/C=C(\C)c1nnc(NC(=O)OCC)s1
→ 2%, >57
> CC(C)(C)C(=O)Nc1ncc(C(F)(F)F)cc1Cl
→ 3%, >57
> O=C(CSc1nnc(C2CCCCC2)n1Cc1ccccc1)NCc1ccco1
→ -4%, >57
> COc1ccc(N2CCN(C(=O)c3c(-c4ccccc4)noc3C)CC2)cc1
→ 2%, >57
> CCc1ccc(OCC(O)CN2CCN(c3ccccc3)CC2)cc1 (centres undefined)
→ -11%, >57
> COc1cc(C(=O)Nc2nncs2)cc(OC)c1OC
→ -10%, nt
> CCc1ccc(CCC(=O)Nc2ccc(C)c(C)c2)o1
→ -16%, >57
> COC(=O)c1ccc(-n2nnnc2SCC(=O)N2CCCCC2)cc1
→ -1%, nt
